HIV Env fusion: blocks HIV Env-driven cell-cell fusion; inhibition, % at 12.3 µM; actives 1.1% (n = 360,000); HeLa-JRFL Env/CEM21 cell fusion, luciferase;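 active = mean replicate inhibition score of at least 50 and every replicate individually at or above 50; inconclusive = only one of the two criteria met; inactive = mean below 50 and not all replicates reaching 50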;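 note: 0% = plate neutral controls and 100% = maraviroc near 300 nM; one replicate is shown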
The depositor's hits bear a star; u = inconclusive; [ ] = remark or other dose. Only part of the results is shown; the hit share may differ from the screen's.

Structure	HIV Env fusion
CC(C)(C)[S@@](=O)N1Cc2cc(C(=O)NCCN3CCCCC3)nc(-c3cccc(-c4ccc(C#N)cc4)c3)c2[C@H]1CCO	-2.1[16.7 µM]
O=C(NCc1ccccc1)[C@@H]1CCCN1C(=O)[C@H]1CCCN1C(=O)c1cccc2ccccc12	u
COC(=O)C1=C(C(=O)OC)C2CCCC1C1N=NN(c3ccccc3)C21 (configuration not stated)	-103.1
CN1C(=O)c2cc(NC(=O)c3cscn3)ccc2OC[C@@H]2O[C@H](CC(=O)NCc3ccc(Cl)c(Cl)c3)CC[C@H]21	57.5*[16.7 µM]
CC=Cc1ccc2n(c1=O)C[C@@H]1[C@@H](CO)[C@H](C(=O)NCc3cc(F)cc(F)c3)[C@H]2N1S(C)(=O)=O (mixture of isomers)	8.3[16.7 µM]
C[C@H](CO)N1C[C@H](C)[C@H](CN(C)CC2CC2)OCCCC[C@H](C)Oc2ccc(NC(=O)CCC(F)(F)F)cc2C1=O	-25.1[16.7 µM]
COc1cccc(CNC(=O)C[C@@H]2CC[C@H]3[C@@H](COc4ccc(NC(=O)c5cccs5)cc4C(=O)N3C)O2)c1	11.1[16.7 µM]
CO[C@@H]1CC[C@@H]2CCN(C)C(=O)[C@H](C)N(C)C(=O)c3cc(C#N)ccc3OC[C@H]1O2	-15.4[16.7 µM]
COc1ccc2c3c([nH]c2c1)[C@H](CO)N(C(=O)c1ccc(F)cc1)CC31CCN(C(=O)Nc2cccc(F)c2)CC1	15.9[16.7 µM]
CO[C@H]1CC[C@H]2CCOc3c(C#N)cccc3C(=O)N(C)C[C@@H](OC)[C@H](C)C(=O)N(C)C[C@H]1O2	-1.4[16.7 µM]
C[C@H]1CN([C@@H](C)CO)C(=O)Cc2cc(NS(=O)(=O)c3ccccc3)ccc2O[C@@H]1CN(C)Cc1ccc(C(=O)O)cc1	-31.0[16.7 µM]
O=C1N[C@H](c2ccccc2)COCn2nncc2CC[C@H]1Cc1ccccc1	-14.3[16.7 µM]
O=C(Cc1c[nH]c2ccccc12)Nc1ccc(Nc2ccncc2)cc1	-58.8
COc1ccc(-c2ccc3n(c2=O)C[C@H]2[C@H](CO)[C@@H](C(=O)N(C)C)N(CC4CCCC4)[C@@H]32)cc1	-3.3[16.7 µM]
CNC(=O)C[C@@H]1CC[C@@H]2[C@H](COc3ccc(NC(=O)c4ccc(F)cc4)cc3C(=O)N2C)O1	-0.6[16.7 µM]

The results go on.
Structure	HIV Env fusion
O=C(C[C@@H]1C=C[C@H](NS(=O)(=O)c2ccccc2)[C@@H](CO)O1)NCc1ccc(Cl)c(Cl)c1	-11.2[16.7 µM]
CO[C@@H]1CN(C)C(=O)c2ccc(NC(=O)Nc3c(C)noc3C)cc2OC[C@@H](C)N(CC2CC2)C[C@H]1C	-10.8[16.7 µM]
CCNC(=O)Nc1ccc2c(c1)C(=O)N(C)[C@H]1CC[C@H](CC(=O)N[C@H](C)c3ccccc3)O[C@H]1CO2	-2.0[16.7 µM]
C[C@@H]1CN([C@H](C)CO)S(=O)(=O)c2ccc(-c3cccnc3)cc2O[C@H]1CN(C)C(=O)C1CC1	-16.2[16.7 µM]
C[C@@H]1CCCCO[C@H](CN(C)C(=O)c2ccncc2)[C@@H](C)CN([C@H](C)CO)C(=O)c2cc(NC(=O)c3ccncc3)ccc2O1	-0.2[16.7 µM]
CO[C@@H]1CN(C)C(=O)c2cc(NC(=O)C3CCC3)ccc2OC[C@H](C)N(Cc2ccccn2)C[C@H]1C	-18.3[16.7 µM]
COc1ccccc1NC(=O)N1C[C@H](O)COC[C@H]2O[C@H](CC(=O)N3CCC(Cc4ccccc4)CC3)CC[C@@H]21	13.1[16.7 µM]
O=C(C[C@H]1C[C@H]2c3cc(NC(=O)CC4CC4)ccc3O[C@H]2[C@@H](CO)O1)NCc1ccc(Cl)cc1	11.9[16.7 µM]
COc1ccc(-c2cc(NC(=O)Cc3c[nH]c4ccccc34)ccc2Nc2cccnc2)cc1F	7.3
Cc1noc(C)c1NC(=O)Nc1cccc2c1O[C@H](CN(C)S(=O)(=O)c1ccccc1)[C@H](C)CN([C@@H](C)CO)C2=O	7.1[16.7 µM]
O=C(CCN1CCCCC1)NCC[C@@H]1CC[C@@H](NS(=O)(=O)c2cccc(Cl)c2)[C@@H](CO)O1	23.5[16.7 µM]
O=C(O)CCCC(=O)OCCCc1cc2ccccc2c(=O)o1	-0.6
CCCN(C)C[C@@H]1OCCCC[C@@H](C)Oc2ccc(NS(C)(=O)=O)cc2C(=O)N([C@H](C)CO)C[C@@H]1C	18.7[16.7 µM]
COc1ccc2c3c(n(C)c2c1)[C@H](CO)N(C(=O)Nc1ccc(F)cc1)CC31CN(Cc2cccnc2)C1	-5.8[16.7 µM]
O=S(=O)(c1ccc(F)cc1)N1CCCc2nc(-c3ccc(Br)cc3)ccc21	-14.8

Continuation:
Structure	HIV Env fusion
C[C@@H]1COc2cc(N3CCCCC3)ccc2S(=O)(=O)N1	-4.9
CN1C(=O)c2cc(NS(=O)(=O)c3cccc(F)c3)ccc2OC[C@H]2O[C@H](CC(=O)NCCN3CCCCC3)CC[C@@H]21	-9.2[16.7 µM]
CCCC(=O)Nc1ccc2c(c1)C(=O)N(C)C[C@H](OC)[C@H](C)CN(C(=O)C1CCCC1)[C@@H](C)CO2	-18.8[16.7 µM]
C[C@H](CO)N1C[C@H](C)[C@@H](CN(C)S(=O)(=O)c2ccc(Cl)cc2)OCc2ccccc2-c2ccccc2C1=O	7.3[16.7 µM]
COc1cccc(S(=O)(=O)N2C[C@@H](O)COC[C@H]3O[C@H](CC(=O)Nc4ccccc4)CC[C@@H]32)c1	4.8[16.7 µM]
CCN(CC)C(=O)c1ncn2c1C(=O)N[C@@H](C)C2	45.2
C[C@@H]1CN([C@H](C)CO)C(=O)Cc2cc(NS(=O)(=O)c3cn(C)cn3)ccc2O[C@@H]1CN(C)C(=O)Nc1ccc(C(F)(F)F)cc1	5.3[16.7 µM]
Nc1ccc(F)c(CN2CCN(c3ncc(Cc4ccccc4)cn3)CC2)c1	-4.1
C[C@@H](NC(=O)C[C@H]1C[C@H]2c3cc(NC(=O)C4CCOCC4)ccc3O[C@H]2[C@@H](CO)O1)c1ccccc1	-2.8[16.7 µM]
CO[C@@H]1CC[C@@H]2CCN(C)C(=O)C[C@@H](c3ccccc3)CN(C)C(=O)c3cccc(C#N)c3OC[C@H]1O2	13.1[16.7 µM]
O=C(C[C@@H]1C=C[C@@H](NC(=O)c2ccncc2)[C@@H](CO)O1)NCC1CC1	-0.3[16.7 µM]
O=C(C[C@@H]1CC[C@H](NC(=O)CN2CCOCC2)[C@H](CO)O1)NCc1cccc(F)c1	-15.7[16.7 µM]
CO[C@H]1CC[C@H]2CCOc3ccc(C#N)cc3C(=O)N(C)C[C@H](c3ccccc3)CC(=O)N(C)C[C@@H]1O2	-14.4[16.7 µM]
C[C@@H]1CN([C@H](C)CO)C(=O)c2cc(NC(=O)Nc3ccccc3)ccc2O[C@H]1CN(C)C(=O)Nc1ccc2c(c1)OCO2	-4.1[16.7 µM]
Cc1cccc2c3c([nH]c12)[C@H]1CCC(=O)N1CC3	-65.2[16.7 µM]

Gathered by group, the compounds so far with an aryl methoxy group (seven)
Structure	HIV Env fusion
COc1cccc(CNC(=O)C[C@@H]2CC[C@H]3[C@@H](COc4ccc(NC(=O)c5cccs5)cc4C(=O)N3C)O2)c1	11.1[16.7 µM]
COc1ccc2c3c([nH]c2c1)[C@H](CO)N(C(=O)c1ccc(F)cc1)CC31CCN(C(=O)Nc2cccc(F)c2)CC1	15.9[16.7 µM]
COc1ccc(-c2ccc3n(c2=O)C[C@H]2[C@H](CO)[C@@H](C(=O)N(C)C)N(CC4CCCC4)[C@@H]32)cc1	-3.3[16.7 µM]
COc1ccccc1NC(=O)N1C[C@H](O)COC[C@H]2O[C@H](CC(=O)N3CCC(Cc4ccccc4)CC3)CC[C@@H]21	13.1[16.7 µM]
COc1ccc(-c2cc(NC(=O)Cc3c[nH]c4ccccc34)ccc2Nc2cccnc2)cc1F	7.3
COc1ccc2c3c(n(C)c2c1)[C@H](CO)N(C(=O)Nc1ccc(F)cc1)CC31CN(Cc2cccnc2)C1	-5.8[16.7 µM]
COc1cccc(S(=O)(=O)N2C[C@@H](O)COC[C@H]3O[C@H](CC(=O)Nc4ccccc4)CC[C@@H]32)c1	4.8[16.7 µM]

More structures follow:
Structure	HIV Env fusion
C[C@@H]1CN([C@@H](C)CO)C(=O)c2ccccc2-c2ccccc2CO[C@@H]1CN(C)C(=O)c1ccncc1	-21.1[16.7 µM]
O=C(C[C@@H]1CC[C@H]2[C@@H](COC[C@H](O)CN2C(=O)c2ccncc2)O1)NCc1cccc(F)c1	5.1[16.7 µM]
COCCNC(=O)C[C@H]1C[C@H]2c3cc(NC(=O)CN(C)C)ccc3O[C@H]2[C@H](CO)O1	-40.7[16.7 µM]
CO[C@H]1CN(C)C(=O)c2ccc(NC(=O)C3CCOCC3)cc2OC[C@H](C)N(Cc2nccs2)C[C@H]1C	4.0[16.7 µM]
C=CCN1C[C@H](COC(=O)CSc2ccccc2)Oc2cccc(F)c2S1(=O)=O	-17.5
O=C(C[C@@H]1C[C@@H]2c3cc(NC(=O)C4CCC4)ccc3O[C@@H]2[C@H](CO)O1)NCc1ccccn1	-1.9[16.7 µM]
COC(=O)c1c(CC[C@@H](CO)NC(=O)N2CCC[C@H]2Cn2cc(C3(O)CCCCC3)nn2)oc(C(C)=O)c1C(=O)OC	-18.9[16.7 µM]
Cc1cc(N2CCN(S(C)(=O)=O)C[C@@H]2C)ccc1N1CCN(Cc2ccccc2)[C@@H](C)C1	3.6
Cc1cccc(CN2[C@@H](C)[C@H](c3ccccc3)Oc3cc(Br)ccc3S2(=O)=O)c1	24.7
C[C@@H]1CN([C@@H](C)CO)C(=O)c2cc(NS(=O)(=O)c3ccccc3)ccc2O[C@@H]1CN(C)C(=O)Nc1ccc(C(F)(F)F)cc1	-3.0[16.7 µM]
C[C@@H](O)C#Cc1cnc2c(c1)C(=O)N([C@@H](C)CO)C[C@H](C)[C@@H](CN(C)C(=O)Cc1ccncc1)O2	3.2[16.7 µM]
CCC(=O)Nc1ccc2c(c1)C(=O)N(C)C[C@H](OC)[C@H](C)CN(CC1CCOCC1)[C@H](C)CO2	18.2[16.7 µM]
CCCCc1c(-c2ccccc2OC)ncn1C(C)c1ccc(Cl)cc1 (configuration not stated)	-7.7
C[C@@H]1CN([C@@H](C)CO)C(=O)CCCn2cc(nn2)CO[C@@H]1CN(C)S(C)(=O)=O	-7.7[16.7 µM]
C[C@@H]1CN([C@H](C)CO)C(=O)c2cccc(NS(=O)(=O)c3ccc(Cl)cc3)c2O[C@H]1CN(C)S(=O)(=O)c1cn(C)cn1	-27.8[16.7 µM]

Carrying on:
Structure	HIV Env fusion
COc1ccc(CN(C)C[C@@H]2Oc3ccc(NS(=O)(=O)c4cccs4)cc3C(=O)N([C@H](C)CO)C[C@@H]2C)cc1	-0.2[16.7 µM]
CN(C)CC(=O)Nc1ccc2c(c1)[C@@H]1C[C@@H](CC(=O)NC3CCCCC3)O[C@H](CO)[C@@H]1O2	-16.1[16.7 µM]
CC1(C)CC(=O)C=C(c2ccccc2F)C1=O	-17.7
COc1ccc2c3c([nH]c2c1)[C@@H](CO)N(C(=O)CN1CCOCC1)CC31CCN(Cc2ccccc2)CC1	u
C[C@H](CO)N1C[C@H](C)[C@@H](CN(C)CC2CC2)OCCCC[C@H](C)Oc2ccc(NC(=O)Nc3ccccc3)cc2C1=O	-12.8[16.7 µM]
CN1[C@@H]2c3ccc(-c4ccccc4)c(=O)n3C[C@H]1[C@H](CO)[C@H]2C(=O)NCC1CCCCC1	10.1[16.7 µM]
COCCN1Cc2cc(C(=O)OC)c3c(c2C1=O)c1ccccc1n3S(=O)(=O)c1ccc(C)cc1	1.8
C[C@@H]1CCCCO[C@H](CN(C)C(=O)c2ccncc2)[C@@H](C)CN([C@H](C)CO)C(=O)c2cc(NC(=O)C3CCCCC3)ccc2O1	15.1[16.7 µM]
CC(C)NC(=O)Nc1ccc2c(c1)C(=O)N([C@@H](C)CO)C[C@@H](C)[C@H](CN(C)C(=O)CCCN(C)C)OCCCC[C@H](C)O2	11.9[16.7 µM]
CCCN1C[C@@H](C)[C@@H](OC)CN(C)C(=O)c2cc(NS(=O)(=O)c3ccccc3)ccc2OC[C@H]1C	5.8[16.7 µM]
COC(=O)[C@]12C[C@H](CC(=O)NCC3CCCCC3)C(=O)N(Cc3ccccc3)C1=C[C@H](C(C)(C)C)O[C@@H]2C	-33.9
CCC(=O)Nc1ccc2c(c1)C(=O)N(C)[C@@H]1CC[C@@H](CC(=O)Nc3cccc(OC)c3)O[C@@H]1CO2	-17.2[16.7 µM]
Cc1noc(C)c1S(=O)(=O)Nc1ccc2c(c1)CC(=O)N([C@@H](C)CO)C[C@@H](C)[C@H](CN(C)C(=O)Nc1ccccc1)O2	3.0[16.7 µM]
C[C@H]1CN([C@@H](C)CO)C(=O)CCCn2cc(nn2)CO[C@H]1CN(C)C(=O)Nc1ccc2c(c1)OCCO2	-23.6[16.7 µM]
Nc1[nH]c(C(=O)c2ccccc2)c(-c2ccccc2C(F)(F)F)c1C(=O)c1c[nH]c2ccccc12	10.1

(cont.)
Structure	HIV Env fusion
C[C@H](NC(=O)C[C@@H]1CC[C@@H](NC(=O)c2cccnc2)[C@@H](CO)O1)c1ccccc1	-5.6[16.7 µM]
COC(=O)c1cn(C[C@@H](Cc2ccccc2)NC(=O)Nc2ccccc2)nn1	2.8[16.7 µM]
CO[C@@H]1CC[C@@H]2CCN(C)C(=O)C[C@H](c3ccccc3)CN(C)C(=O)c3cccc(C#N)c3OC[C@@H]1O2	-3.2[16.7 µM]
COCC(=O)N1C[C@H](C)[C@@H](OC)CN(C)C(=O)c2cc(NC(=O)c3cc(C)on3)ccc2OC[C@@H]1C	-16.8[16.7 µM]
CC(C)NC(=O)Nc1ccc2c(c1)C(=O)N([C@@H](C)CO)C[C@@H](C)[C@H](CN(C)Cc1ccncc1)OCCCC[C@@H](C)O2	4.4[16.7 µM]

Bioassay records deposited in PubChem by Broad Institute.
